# Sa RN4220 lethal: kills Staphylococcus aureus RN4220; S. aureus RN4220 growth, OD600, 16 h; inhibition, % (concentration not given with the values); hit rate 0.33% among 330,000;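 active = z-score of -3 or lower and OD600 up to 0.18 on both plates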;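 note: plate controls were untreated cells for no effect and reference antibiotic for full effect; stock transfer was 100 nL into about 80 µL; one replicate is shown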
# BJeLR viability: BJeLR cell viability loss; BJeLR (HRASV12) viability, CellTiter-Glo ATP luminescence, 48 h; reference of the scale not given here; inhibition, % (no concentration beside the values); hit rate 0.17% among 300,000; AID 1554;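 active = replicate mean above 50%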;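 note: 50 nL library stock added to about 25 µL; numbers are from one replicate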
# Mtb hypoxia inh: inhibitors of hypoxia-regulated fluorescent reporter in Mycobacterium tuberculosis; M. tuberculosis hypoxia-regulated fluorescent reporter, fluorescence; fluorescence inhibition, % (concentration not given with the values); hit rate 0.1% among 300,000;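 active = 35 to 45% if threefold the growth effect, above 45% if 1.5-fold the growth effect; inactive = the rest, general growth blockers included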;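 note: wells of about 50 µL received 100 nL stock; 0% = vehicle wells and 100% = reference inhibitor wells; whole bacteria with a GFP reporter of the hypoxia response; strong numbers were not always called active; many hits fall short of the cut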
# Bead autofluor: counter-screen for toxin protease inhibitors: compound fluorescence; fluorescence intensity (no concentration beside the values); compound autofluorescence counterscreen, microsphere flow cytometry; hits give high values; AID 624483; hit rate 3.1% among 360,000;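 active = at least 3 SD above the mean of all compounds, about 16000 in these data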;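 note: 100 nL of 1 mM stock went into each well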
# ugtP null kill: compounds lethal to S. aureus RN4220 ugtP deletion mutant; hit rate 0.54% among 330,000; AID 1259309; growth inhibition, % (no concentration beside the values); OD600 growth, 16 h; some inactives read as strong as hits;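 active = z-score under -3 and OD600 up to 0.15 on both plates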;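 note: plate controls were untreated wells for no effect and antibiotic for full effect; wells of about 80 µL received 100 nL stock; the first replicate is given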
# PrP 5UTR inh: inhibition of PrP 5' UTR reporter expression | cell-based PrP 5' UTR mRNA reporter, plate reader | inhibition, % (no concentration beside the values) | hit rate 0.35% among 340,000;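 active = every replicate at 50% or more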;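 note: 0 = median of the neutral control wells; tested in H4 reporter cells; numbers are from one replicate; inactives centre near -14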
# Mtb hypoxia inh growth: further read-out of Mtb hypoxia inh, marked with its call; growth inhibition, %; measured here: M. tuberculosis growth (absorbance);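 0% = vehicle and 100% = reference antibiotic; read after six days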
# The depositor's hits bear a star; nt = no result given; & = joins results of further samples.
# The line under a structure holds: Bead autofluor	BJeLR viability	Mtb hypoxia inh	PrP 5UTR inh	ugtP null kill	Mtb hypoxia inh growth	Sa RN4220 lethal
> COc1ccc(NC(=O)Nc2cccs2)cc1OC
→ 8871	6	16	-28	2	9	0.1
> Cc1cccn2cc(CNC(=O)CC3CCCC3)nc12
→ 2362	7	9	-10	1	9	3.5
> CC(C)C1=CC(=Nc2ccc(S(N)(=O)=O)cc2)C=C(C(C)C)C1=O
→ 2955	1	22	-28	59	5	18
> N#Cc1c(N2CCN(C(=O)c3ccco3)CC2)nc(-c2ccccc2)c2c1CCCC2
→ 13436	-2	15	-2	11	12	4.4
> CC(C)CCn1c(=O)c2ccccc2n2c(CCl)nnc12
→ 3259	1	36*	6	-73	17*	3.8
> O=C(O)CCC(C(=O)O)N1C(=O)c2ccccc2C1=O (stereo unspecified)
→ nt	nt	-6	nt	0	3	0.7
> O=C1C2C(C=Cc3ccccc3)N3C(=O)CN(CC4CC4)C(=O)[C@@]3(Cc3ccccc3)C2C(=O)N1c1ccccc1 (stereo partly specified)
→ nt	nt	-3	nt	2	4	8.0
> CN(C)c1nc(N)c([N+](=O)[O-])c(NCc2ccccc2)n1
→ 9359	-2	10	-54	3	3	0.8
> CCNC(=S)Nc1cccc(S(=O)(=O)NC2=NCCC2)c1
→ 3152	-5	2	-19	10	1	2.7
> CCN(CC(=O)Nc1c(F)cccc1F)C(=O)C1CC1
→ 3701	nt	-2	-14	10	0	6.9
> CCOC(=O)C(Oc1ccc(=O)[nH]n1)C(C)=O (stereo unspecified)
→ 2322	0	4	-7	8	1	3.2
> C/C=C/Cn1c(SCc2ccccc2)nc2c1c(=O)[nH]c(=O)n2C
→ 4960	3	nt	-2	-1	nt	1.3
> O=C(CN1CCN(S(=O)(=O)N2CCCCC2)CC1)Nc1cc(Cl)ccc1Cl
→ 3209	3	6	-27	9	1	1.9
> COCCN(C(=O)c1ccc2c(c1)C(=O)N(c1ccccc1Cl)C2=O)c1c(N)n(CC(C)C)c(=O)[nH]c1=O
→ 3462	nt	4	-3	3	16	3.1
> CCC(C)C(=O)Nc1nnc(SCC(=O)NC2CCCCC2)s1 (stereo unspecified)
→ 5765	-6	1	-15	13	2	0.1
> CCc1ccc(/C=C2/C(=O)N(CC)C(=S)N2C)s1
→ 2458	-12	1	-5	3	-8	3.0
> O=C1c2ccc([N+](=O)[O-])cc2C(=O)N1c1ccc([N+](=O)[O-])cn1
→ 4356	-7	6	-7	5	9	2.9
> O=C(c1c(F)cccc1F)N1CCN(c2ncc(Br)cn2)CC1
→ 3212	-8	5	-3	9	-4	9.1
> CCN(c1ccccc1)S(=O)(=O)c1ccc(Cl)nc1
→ 3636	-16	9	-4	10	-8	4.5
> CC(C)(C)OC(=O)n1cc(/C=N/NC(=O)c2ccco2)c2ccccc21
→ 5748	7	nt	-31	nt	nt	nt
> CN(Cc1nc(-c2ccccn2)no1)S(=O)(=O)c1ccc(Br)cc1
→ 2557	-15	8	-18	3	7	-4.3
> COC(=O)c1ccc(CSc2nc3c(cnn3-c3ccccc3)c(=O)[nH]2)o1
→ 8373	-6	15	-4	-16	7	5.7
> CC(=NNC(=O)c1ccncc1)c1cc(Cl)ccc1Cl
→ 3523	nt	23	-21	11	14	1.6
> C/C(=N\NC(=O)c1ccccc1)c1ccccc1F
→ 2011	-14	nt	-56	nt	nt	nt
> C=CCOc1c(Br)cc(/C=N\n2nnnc2N)cc1OC
→ 2053	-5	nt	-8	nt	nt	nt
> CN(C)CCNC(=O)COc1ccc(C23CC4CC(CC(C4)C2)C3)cc1
→ 2060	3	14	-9	-12	12	-1.7
> [O-][n+]1onc2c1C(N1CCOCC1)CCC2N1CCOCC1 (stereo unspecified)
→ 2856	3	nt	-17	3	nt	-1.8
> CCOc1ccccc1C(=O)Nc1cccc2ccccc12
→ 3985	4	11	-25	-2	2	4.9
> COc1cccc(CN2CCNC(=O)C2CC(=O)N(C)CCc2ccccn2)c1 (stereo unspecified)
→ 2101	13	6	-16	0	11	2.2
> CCOc1ccccc1-c1nnc(SCC(=O)Nc2ccccc2)o1
→ 4727	5	nt	-35	-6	nt	23
> CCN(C(=O)COC(=O)CCS(=O)(=O)c1ccc(C)cc1)C1CCS(=O)(=O)C1 (stereo unspecified)
→ 5503	-1	0	-14	-4	-5	-0.2
> CCN(CC)C(=O)c1nc[nH]c1C(=O)N(C)Cc1ccccc1
→ 4249	nt	5	-27	-8	3	5.3
> O=C(CSc1nnc(COc2ccccc2)o1)Nc1nccs1
→ 5876	-6	nt	-29	1	nt	0.9
> O=CN(/C=C1\Sc2ccccc2C1=O)Cc1ccccc1
→ 22692*	4	9	-38	-8	10	5.8
> COc1cccc(CNC(=O)Cn2ncn3cccc3c2=O)c1OC
→ 5848	-14	-2	-44	2	3	8.0
> CC(OC(=O)CCCOc1ccccc1)C(=O)NC(N)=O (stereo unspecified)
→ 10004	-2	3	-23	-5	-4	-1.4
> CCC(c1nnnn1CCOC)N1CCN(c2cccc(C(F)(F)F)c2)CC1 (stereo unspecified)
→ 2085	nt	nt	-13	-1	nt	8.8
> Cc1cc2c(cc(C(=O)NCCCN3CCOCC3)n2Cc2ccc(Cl)cc2)o1
→ 8317	4	4	10	5	-1	5.2
> O=C(CO/N=C/c1ccc(OC(F)F)cc1)N1CCc2ccccc21
→ 2572	9	nt	-22	nt	nt	nt
> CC(=O)N1CCc2ccc(NC(=O)c3c(-c4c(Cl)cccc4Cl)noc3C)cc21
→ 4608	-9	15	-13	3	4	7.3
> CC(=NNC(=O)CSCc1ccc([N+](=O)[O-])cc1)c1ccccc1O
→ nt	nt	5	nt	-7	12	-3.7
> CSc1ccc2c(c1)C(N1CCN(C)CC1)Cc1ccccc1S2 (stereo unspecified)
→ 5408&3696	4&21	10	-17	-2	23	-10
> Cc1cc(C)cc(C(=O)Nc2cccc(NC(=O)c3ccco3)c2)c1
→ 5609	1	4	-18	10	2	55
> O=C(c1ccc(C(F)(F)F)cc1)C1CCCN(C(=O)CN2C(=O)CSC2=O)C1 (stereo unspecified)
→ 4481	7	-3	-22	-4	-5	-5.5
> Cc1nn(-c2ccccc2)c(C)c1/C=N/NC(=O)CSc1nc2ccccc2c(=O)n1-c1ccc(Br)cc1
→ 2341	2	nt	0	nt	nt	nt
> O=C(CN1C(=O)NC2(CCCCCC2)C1=O)NC1CCCCCCC1
→ 4027	-4	-5	-23	-3	2	-1.5
> CCOC(=O)Cn1c(-c2ccccc2)ccc(C#N)c1=O
→ 4930	-5	0	1	-3	-4	7.9
> COc1cccc(CNC(=O)C2CCC(CNS(=O)(=O)c3cccc4cccnc34)CC2)c1 (stereo unspecified)
→ 4840	-4	-7	-31	6	-6	0.1
> CCN(CC)CCNC1=CC(=O)OC12CCCCC2
→ 2206	-1	nt	-8	7	nt	3.5
> CSCCC(NS(=O)(=O)c1ccccc1F)C(=O)OCc1ccccc1Cl (stereo unspecified)
→ 2425	6	1	-23	-6	-1	9.9
> Cc1ccc(NC(=O)CN(C)C(=O)CCC(=O)N2CCOCC2)cc1
→ 6052	-4	-3	-42	3	0	3.9
> Cc1ccc(S(=O)(=O)N(CC(=O)NCc2ccncc2)Cc2ccc(F)cc2)cc1
→ 3947	-2	6	-22	6	2	0.9
> O=C(CCc1nnc2ccc(N3CCCCC3)nn12)NCC1CCN(Cc2ccc(F)cc2)CC1
→ 5613	5	12	-25	6	-3	5.1
> O=C(CN1CCN(c2ccccc2F)CC1)N1N=CCC1c1ccccc1 (stereo unspecified)
→ 2573	3	9	18	8	4	0.9
> N#Cc1ccccc1NC(=O)COC(=O)c1ccc(S(=O)(=O)N2CCCC2)cc1
→ 2465	-2	nt	6	12	nt	1.8
> Cc1cccc(N=NC(=S)NNc2cccc(C)c2)c1
→ 3305	nt	13	-69	0	6	-3.1
> COc1c(Cl)cc(Cl)cc1C(=O)Nc1ccc(NC(=O)c2cccs2)cc1
→ 9227	-3	2	-5	-2	1	13
> CCOc1ccc2nc(SCC(=O)N3c4ccccc4Sc4ccccc43)sc2c1
→ 3155	-6	1	-16	26	3	-3.0
> COc1ccc(CCNC(=O)CCN2C(=O)c3ccccc3C2=O)cc1OC
→ nt	2	11	nt	10	1	3.5
> CCOC(=O)N1CCN(Cc2nc(-c3ccc(C)cc3)no2)CC1
→ 3943	-4	8	-28	4	13	6.7

# Whole records, quoted from the list. Order of values: Bead autofluor, BJeLR viability, Mtb hypoxia inh, PrP 5UTR inh, ugtP null kill, Mtb hypoxia inh growth, Sa RN4220 lethal
# CCOC(=O)Cn1c(-c2ccccc2)ccc(C#N)c1=O is listed as 4930, -5, 0, 1, -3, -4, 7.9
# CCN(CC)CCNC1=CC(=O)OC12CCCCC2 is listed as 2206, -1, nt, -8, 7, nt, 3.5
# Cc1cc(C)cc(C(=O)Nc2cccc(NC(=O)c3ccco3)c2)c1 is listed as 5609, 1, 4, -18, 10, 2, 55
# Cc1nn(-c2ccccc2)c(C)c1/C=N/NC(=O)CSc1nc2ccccc2c(=O)n1-c1ccc(Br)cc1 is listed as 2341, 2, nt, 0, nt, nt, nt
# CCOc1ccc2nc(SCC(=O)N3c4ccccc4Sc4ccccc43)sc2c1 is listed as 3155, -6, 1, -16, 26, 3, -3.0

# Additional compounds.
# The line under a structure holds: Bead autofluor	BJeLR viability	Mtb hypoxia inh	PrP 5UTR inh	ugtP null kill	Mtb hypoxia inh growth	Sa RN4220 lethal
> CCOCCCNC(=O)CN1CCN(c2ccc(F)cc2)CC1
→ 10061	-8	14	-26	6	7	3.5
> C=CCC1(O)C(=O)N2C(=C1C(=O)OCC)c1ccc3ccccc3c1CC2(C)C (stereo unspecified)
→ 6491	1	5	-33	0	-1	7.2
> CSCCC(NC(=O)C1CCCC1)c1nnc2ccccn12 (stereo unspecified)
→ 5376	-4	4	-2	4	4	4.8
> O=C1NCC(COc2ccc(Cl)cc2)O1 (stereo unspecified)
→ 3429	-2	2	-8	8	3	3.8
> COc1ccc(/C=C2\NC(=S)N(CC3CCCO3)C2=O)c(OC)c1C (stereo unspecified)
→ 7522	-7	6	-13	7	5	5.1
> CC1Cc2ccccc2N1CC(=O)NCc1ccc2c(c1)OCO2 (stereo unspecified)
→ 2251	2	-5	-23	0	8	-3.0
> CC(C)(C)C1COC(=O)CCCC=CCC(CC(=O)N(CCO)Cc2ccccc2)C(=O)N1 (stereo unspecified)
→ nt	nt	12	nt	-5	5	4.3
> COc1ccc(S(=O)(=O)Nc2ccc(NC(C)=O)cc2)cc1OC
→ 4279	-3	5	-8	-3	2	2.7
> O=[N+]([O-])c1c(NCCO)cc(N2CCC3(CC2)OCCO3)c2nonc12
→ 7295	-3	1	-7	-1	1	2.0
> CC(C)(C)C1=NN(c2ccc([N+](=O)[O-])cc2)C(c2ccccc2)C1 (stereo unspecified)
→ 2744	3	-1	-16	-6	-5	-17
> CCC1C(=O)Nc2nc(-c3ccccc3)c(-c3ccccc3)n2N=C1C (stereo unspecified)
→ 4712	-3	nt	-23	11	nt	5.0
> NC(=O)CC(NC(=O)c1cccc(Br)c1)c1ccc(N2CCN(c3ccccn3)CC2)c([N+](=O)[O-])c1 (stereo unspecified)
→ 3714	-1	12	-7	0	11	5.0
> CCOCc1nnc(NC(=O)C2CCN(C(=O)c3ccco3)CC2)s1
→ 3900	9	-4	-15	6	-21	-1.4
> Cn1c(=O)c(C(=O)NCc2ccccc2)c(O)c2ccccc21
→ 3936	-8	12	-43	4	6	3.9
> CCN1CCN(C(C(=O)NC2CCCCC2)c2ccc(Cl)cc2)CC1 (stereo unspecified)
→ 9551	-13	9	-16	8	9	1.2
> CN(C)CCCN(C(=O)c1ccc(S(=O)(=O)N2CCc3ccccc32)cc1)c1nc2ccc(F)cc2s1
→ nt	-3	7	-22	-15	1	-2.5
> CN(C(=O)c1ccc(NC(=O)Cc2cccc(NC(=O)C3CCCN(C(=O)C4CC4)C3)c2)cc1)C1CC1 (stereo unspecified)
→ 3792	nt	1	-27	5	11	3.8
> O=C(Cc1coc2ccc3ccccc3c12)NC1CCCc2ccccc21 (stereo unspecified)
→ 2688	4	4	-18	0	0	5.7
> Cc1ccc(C2(C)NC(=O)N(CC(=O)Nc3c(C)n(C)n(-c4ccccc4)c3=O)C2=O)cc1 (stereo unspecified)
→ 2476	2	3	-14	0	2	1.7
> Cc1ccc(OCc2nnc(SCC(=O)c3cccs3)n2-c2ccccc2)cc1C
→ 3548	3	9	19	-5	-1	2.1
> CCOc1ccc(NC(=S)N2c3ccccc3CC2C)cc1 (stereo unspecified)
→ 4145	0	3	-8	3	5	13
> COc1ccc(C2C=CCN(Cc3ccc(N(C)C)cc3)CC(=O)N2Cc2ccc(F)cc2)cc1 (stereo unspecified)
→ nt	nt	8	nt	-6	7	1.7
